StopGo RLuc – lowers the Renilla signal of an FMDV 2A StopGo reporter. Potency, µM (highest dose often 57.5 µM), inactives show top-dose signal change, negative = less light. HEK cells with a luciferase reporter of 2A StopGo recoding. 120,000 compounds, 0.32% hits. AID 1745857; active means well fitted falling curve with a large enough effect; inconclusive means small, poorly fitted or top-dose-only effect; inactive means no such curve, though single readings can be large or run the other way; note: nearly all actives have a fitted effect of over 55% in size; overnight with compound
StopGo FLuc – lowers the firefly signal of an FMDV 2A StopGo reporter; HEK cells with a luciferase reporter of 2A StopGo recoding; Potency, µM (doses to about 57.5 µM), without a hit: at the top dose signal change, negative = less light; 120,000 compounds, 0.23% hits; active = well fitted falling curve with a large enough effect; inconclusive = small, poorly fitted or top-dose-only effect; inactive = no such curve, though single readings can be large or run the other way; note: nearly all actives have a fitted effect of over 60% in size; overnight with compound
Numbers without * were called inactive; ? = inconclusive; & = joins results of further samples; [ ] = dose if it differs, or a comment. % is set by controls: 0 for no effect and ±100 for the full control effect; potency is the fitted concentration of half-maximal effect. Not all compounds are listed; count on the stated rates, not on these rows.

SMILES	StopGo RLuc	StopGo FLuc
CCc1c(C(=O)c2ccc[nH]2)oc2ccc(F)cc12	3.0%	5.7%
CCOc1ccc2c(c1)O/C(=C\c1cccc(OS(C)(=O)=O)c1)C2=O	15.1%	0.0%
CC(CNC(=O)c1cc2ccccc2s1)N1CCCCC1 (stereo not given)	-17.3%	-8.4%
CC(c1nc2ccccc2n1CC(=O)N(c1ccccc1)C(C)C)N1CCOCC1 (stereo not given)	-6.6%	-7.9%
COc1cc2oc(=O)c(CC(=O)NCc3ccc4c(c3)OCO4)c(C)c2cc1OC	-9.6%	-6.7%
Cc1cc(C)c(NC(=O)Cc2cccs2)c(Cl)c1	-9.5%	55.4%[activator]
CCOc1ccccc1NC(=O)c1nn(C)c(=O)c2ccccc12	7.0%	22.1%
CCCn1nc(C(=O)Nc2ccc(OC)c(NC(C)=O)c2)c2ccccc2c1=O	0.0%	33.9%[activator]
CCOc1ccc(-c2nc(C(N)=O)c3c(n2)n(-c2ccc4c(c2)OCO4)c(=O)n3CC)cc1	-19.3%	0.0%
Cc1ccc(CNC(=O)c2ccc(N3CCCC3)c(NC(=O)Nc3ccc(C)cc3)c2)cc1	7.4%	-1.4%
Cc1cn2c(=O)cc(COc3ccc(NC(=O)c4ccc(C(C)(C)C)cc4)cc3)nc2s1	-6.9%	12.2%
COP(=O)(OC)c1nc(Cc2ccc(Cl)cc2)oc1NCc1ccc2c(c1)OCO2	-6.5%	-11.5%
COc1ccc(CCN2C(=O)N(c3cccc(OC)c3)C(=O)C2CC(=O)Nc2ccccc2)cc1 (stereo not given)	250.9%[activator]	-7.0%
CCOC(=O)c1ccc(NC(=O)C(Cc2ccccc2)N2Cc3ccccc3C2=O)cc1 (stereo not given)	5.8%	7.3%
Cc1ccc(NC(=O)Cn2cnc3c2c(=O)n(C)c(=O)n3C)cc1C	-8.4%&-13.7%	5.9%&-10.4%
CSc1nsc(SCCC(=O)NCc2ccccc2)n1	6.4%	12.2%
CCOc1cc(-c2nnc(SCC(=O)NC3CCCC3)nc2-c2ccc(OC)c(OCC)c2)ccc1OC	43.9%[activator]	38.3%[activator]
Cc1ccc(Cn2c(C(=O)O)c(CNCCc3cccs3)c3ccc(C)cc32)cc1	4.4%	-9.7%
Cc1ccc(Cl)cc1N1CCN(C(=O)c2ccc3c(c2)N(Cc2ccccc2)CCS3)CC1	3.9%	-1.0%
O=S(=O)(Nc1nc2ccccc2nc1Nc1ccc(Br)cc1)c1cccs1	5.6%	8.9%
O=C(Cn1cnc2sccc2c1=O)N1N=C(c2ccc(Cl)cc2)CC1c1ccco1 (stereo not given)	-18.6%	-1.5%
Cc1ccc(C)c(-c2csc(NC(=O)CSc3nc4ccccc4o3)n2)c1	21.6%	0.0%
COC(=O)c1ccc(N/C=C/C(=O)c2ccc(Cl)c(Cl)c2)cc1	-0.1%	7.9%
CC(C)OCCCNC(=O)Cc1ccc(NC(=O)N2CCCCc3ccccc32)cc1	-2.0%	-4.7%
CC1=C(C(=O)Nc2ccccc2)C(c2ccccc2F)n2ncc(C(=O)Nc3ccccc3)c2N1 (stereo not given)	-2.1%	-7.0%
Cc1ccc2c(=O)cc(C(=O)N(Cc3ccc(C(C)(C)C)cc3)C3CCS(=O)(=O)C3)oc2c1 (stereo not given)	-18.8%&-4.2%	-20.6%&-21.5%
O=C(O)/C=C/c1cccc([N+](=O)[O-])c1	1.9%	3.3%
Cc1c(F)cccc1NC(=O)c1nn(C)c(=O)c2ccccc12	8.9%	2.6%
COc1ccc(NC(=O)c2oc3ccccc3c2NC(=O)c2cc3ccccc3o2)c(OC)c1	-15.2%	0.2%
O=C(Cc1scnc1-c1cccs1)NCCc1ccccc1F	-5.1%	4.0%
Cc1ccc(S(=O)(=O)NCCc2csc(-c3cccc(F)c3)n2)cc1	-65.2%	?
CCOC(=O)c1ccc(CN(Cc2ccc(F)cc2)S(=O)(=O)c2ccc(F)c(C(=O)Nc3cc(Cl)ccc3OC)c2)cc1	1.7%	-14.6%
COc1cc(C(C)=O)ccc1COc1ccc(C(=O)OCc2ccc(Br)cc2)cc1OC	-4.2%	2.9%
COc1ccc2c(C)c(CC(=O)NC3CCCCC3)c(=O)oc2c1OC	5.9%	22.0%
O=C(CSc1cn(CCNC(=O)c2cccc(C(F)(F)F)c2)c2ccccc12)Nc1ccc2c(c1)OCCO2	?	?
CC(C)NC(=O)NC(=O)CSc1nc2ncccc2c(=O)n1-c1ccccc1	-4.4%	-2.3%
COc1ccc(-n2nnnc2SCc2cc(Cl)c3c(c2)OCCCO3)cc1	?	?
CC(C)(C)CC(=O)NCC(c1ccc2c(c1)OCO2)N1CCOCC1 (stereo not given)	42.0%[activator]	-12.7%
c1ccc2c(c1)OCCOCCOc1ccccc1OCCO2	-5.3%	4.9%
COc1ccc(NC(=O)c2ncoc2-c2ccc(C)s2)cc1	-6.2%	0.0%
COc1ccc(-c2nnc3ccc(Oc4ccc(NC(C)=O)cc4)nn23)cc1	67.4%[activator]	0.0%
CCOc1cc(/C=C(\C#N)C(=O)Nc2ccc(OC)cc2)ccc1OCc1cc(=O)n2nc(CC)sc2n1	-4.2%	?
CCC(C)NC(=O)c1cccc2c(=O)c(C)c(-c3ccccc3)oc12 (stereo not given)	23.2%	-0.3%
CN(C)C(CNC(=O)CC1C=CCC1)c1cccs1 (stereo not given)	3.3%	0.0%
Cc1cc2nc(CSc3nc4ccc(NC(=O)C5CCCCC5)cc4s3)cc(=O)n2o1	4.3%	2.1%
CCc1ccc(NC(=O)CN2C(=O)C3CCCN3c3ccc(S(=O)(=O)N(CC)CC)cc32)cc1 (stereo not given)	8.8%	2.9%
CN(Cc1ccccc1)c1nc2c(c(=O)[nH]c(=O)n2C)n1CCCc1ccccc1	-8.9%	-19.6%
COc1ccc(CC(=O)n2nc(C)c(S(=O)(=O)N3CCc4ccccc4C3)c2C)cc1	96.7%[activator]	16.4%
CCOc1ccc(C(=O)c2oc3ccccc3c2NC(=O)c2nc(S(C)(=O)=O)ncc2Cl)cc1	-6.0%	-4.4%
Cn1c2ccccc2c2nnc(SCc3c(F)cccc3Cl)nc21	-1.5%	-10.2%
Cc1ccc(NC2(c3nnnn3-c3ccc(C)cc3)CCCC2)cc1	260.9%[activator]	0.0%
COc1ccc(C)cc1NC(=O)C(NS(=O)(=O)c1cccs1)c1ccccc1 (stereo not given)	14.0%	8.4%
CCN1CC(CN(C)Cc2nc(C3CC3)no2)Oc2ccccc21 (stereo not given)	8.6%	8.4%
O=c1cc(-c2ccccc2)sc2c1ccc1ccccc12	34.9%	202.8%[activator]
CCN(C(=O)c1cc(S(=O)(=O)N2CCOCC2)cn1C)c1ccc(OC)cc1	21.6%	19.3%
O=C(c1ccccc1Br)N1CCC(CN2CCOCC2)CC1	121.4%[activator]	2.7%
Cc1ccc(S(=O)(=O)N2CCN(c3nc4ccccc4nc3-n3nc(C)cc3C)CC2)cc1	20.2%	12.7%
Cc1nc(-c2ccc(S(=O)(=O)Nc3cc(Cl)ccc3C)cc2)co1	96.4%[activator]	0.0%
O=C(CNC(=O)NCc1ccccc1)NCc1cccc(C(F)(F)F)c1	15.2%	?
Cc1ccc(C)c(CN2CCC(CNC(=O)CCc3nnc4ccc(N5CCOCC5)nn34)CC2)c1	-10.2%	-2.6%

Continuation.
SMILES	StopGo RLuc	StopGo FLuc
Cc1ccc2c(C)c(C(=O)Nc3nonc3-c3cccs3)oc2c1C	-1.6%	7.0%
COCCn1c(SCc2nc(C(C)(C)C)no2)nc2sc(C)c(C)c2c1=O	5.1%	5.4%
COc1cccc(CNC(=O)Cn2c(SCC(=O)Nc3ccc(F)cc3)nc3ccccc32)c1	10.5%	-5.0%
CCCCC/C(CCCCCCC/C(CCCCC)=N/NC(N)=O)=N/NC(N)=O	9.6%	11.2%
CC1(C)C2CCC1(C)C(OCC[N+](C)(C)Cc1ccccc1)C2 (stereo not given)	?	?
CCNC(=O)c1cccc(NC(=O)c2cc(=O)c3cc(C)ccc3o2)c1	-13.0%	-1.4%
CCS(=O)(=O)c1cccc(C(=O)N2CCN(c3nc4c(C)ccc(Cl)c4s3)CC2)c1	-9.2%	0.0%
CCc1ccc(C2=C(C)C(=NCC(=O)NCc3ccc(OC)cc3)NS2(=O)=O)cc1	185.8%[activator]	22.7%
CCCN1C(=O)C2(c3ccccc31)c1c(oc3ccccc3c1=O)C(=O)N2CCCOC(C)C (stereo not given)	-5.5%	-15.5%
COc1cccc(N2CCN(C(=O)Cn3ncc4c(=O)oc5ccccc5c43)CC2)c1	-7.2%	-15.1%
Cc1ccc(Cl)cc1N1CCN(C(=O)C2CCN(S(=O)(=O)c3ccc4c(c3)oc(=O)n4C)CC2)CC1	-22.1%	-21.1%
COc1cc(NC(=O)NCc2ccc(Cl)cc2Cl)cc(OC)c1OC	20.5%	0.0%
CC(=O)NCCc1ccc(C(=O)COC(=O)c2cc(C)ccc2O)s1	-1.0%	11.1%
CCCCn1cc(S(=O)(=O)c2ccc(OCC)cc2)c(=O)c2cc(F)ccc21	45.5%[activator]	-23.5%
Cc1cccc(/C=N/NC(=O)c2cccs2)c1	51.7%[activator]	224.0%[activator]

Three entries already listed, arranged by molar mass, descending.
SMILES	StopGo RLuc	StopGo FLuc
Cc1ccc(Cl)cc1N1CCN(C(=O)C2CCN(S(=O)(=O)c3ccc4c(c3)oc(=O)n4C)CC2)CC1	-22.1%	-21.1%
CCCCC/C(CCCCCCC/C(CCCCC)=N/NC(N)=O)=N/NC(N)=O	9.6%	11.2%
Cc1cccc(/C=N/NC(=O)c2cccs2)c1	51.7%[activator]	224.0%[activator]

Additional entries follow:
SMILES	StopGo RLuc	StopGo FLuc
Cc1cccc(NC(=O)Cc2nc(-c3ccccc3)oc2C)n1	-0.5%	23.7%
Cc1ccc(C)c(NC(=O)C(C)SC(c2ccccc2)c2ccccc2)c1 (stereo not given)	14.7%	12.8%
CCOc1ccc(S(=O)(=O)Nc2ccc3c(c2)CCCN3C(=O)c2cccs2)cc1	125.5%[activator]	-22.8%
CC(C)(C)c1ccc(C(=O)/C=C/c2cccc([N+](=O)[O-])c2)cc1	10.8%	32.3%[activator]
Cc1nc(-c2csc(S(=O)(=O)NCc3ccc(Br)cc3)c2)no1	88.4%[activator]	1.6%
CC1=C(C(=O)Nc2ccccc2Cl)C(c2cccs2)n2ncnc2N1 (stereo not given)	-2.5%	92.1%[activator]
Cc1ccc(C2C3=C(CC(C)(C)CC3=O)Nc3c2c(=O)[nH]c(=O)n3Cc2ccccc2)cc1 (stereo not given)	162.7%[activator]	32.0%
Clc1cccc(CN2CCc3ccccc3C2)c1	11.6%	33.4%[activator]
COc1cc(CNC(=O)N2CCN(S(=O)(=O)c3ccc(Cl)s3)CC2)ccc1OC(F)F	0.7%	-6.3%
CC1=C(C(=O)OC2CCCC2)C(c2cccc(Cl)c2Cl)CC(=O)N1 (stereo not given)	4.8%	-3.6%
O=C(Nc1ccc2oc(-c3ccc(O)c(Br)c3)nc2c1)c1cc2ccccc2o1	14.9%	0.0%
Fc1ccccc1-c1nnc(SCc2cccc3ccccc23)n1C1CC1	-5.5%[1.06 µM]	19.0%
C[N+](C)(Cc1ccccc1)CC(Br)CBr (stereo not given)	7.9%	13.7%
CCOC(=O)c1cnc2c(OC)cccc2c1Nc1ccc(N(C)C)cc1	1.2%	-7.7%
COc1ccccc1-c1ccnc2[nH]n(-c3ccccc3)c(=O)c12	-4.2%	0.0%
CCC(C)(C)C1CCc2c(sc(NC(=O)/C=C/c3ccc(C(C)C)cc3)c2C#N)C1 (stereo not given)	6.8%	35.0%[activator]
COc1ccc2c(c1)cc1c(=O)n(CC(=O)NC(C)CCc3ccccc3)nc(C)n12 (stereo not given)	1.7%	-4.3%
COc1ccc(CNC(=O)CCn2nc(C)c3c(C)n(-c4ccccc4)nc3c2=O)c(OC)c1	-13.6%	-11.7%
CCc1nnc(NC(=O)CSc2nccn2Cc2ccccc2)s1	4.3%	51.5%[activator]
Cc1ccc(Nc2nc(-c3ccccc3)c(C(=O)Nc3cccnc3)s2)cc1	24.8%	95.2%[activator]
COCCn1cnc2c1c(=O)n(CC(=O)NC13CC4CC(CC(C4)C1)C3)c(=O)n2Cc1ccccc1	11.5%	4.2%
O=C(NCCS(=O)(=O)N1CCN(c2ccc(F)cc2)CC1)c1cc(=O)c2ccccc2o1	-9.6%	-13.5%
CCOC(=O)c1ccc(NC(=O)Cn2nc(C)c3nn(-c4ccc(Cl)cc4)c(C)c3c2=O)cc1	-12.9%	-16.1%

In the list so far, 13 contain two or more sulfur atoms:
SMILES	StopGo RLuc	StopGo FLuc
CSc1nsc(SCCC(=O)NCc2ccccc2)n1	6.4%	12.2%
O=S(=O)(Nc1nc2ccccc2nc1Nc1ccc(Br)cc1)c1cccs1	5.6%	8.9%
Cc1ccc(C)c(-c2csc(NC(=O)CSc3nc4ccccc4o3)n2)c1	21.6%	0.0%
O=C(Cc1scnc1-c1cccs1)NCCc1ccccc1F	-5.1%	4.0%
Cc1ccc(S(=O)(=O)NCCc2csc(-c3cccc(F)c3)n2)cc1	-65.2%	?
Cc1cc2nc(CSc3nc4ccc(NC(=O)C5CCCCC5)cc4s3)cc(=O)n2o1	4.3%	2.1%
COc1ccc(C)cc1NC(=O)C(NS(=O)(=O)c1cccs1)c1ccccc1 (stereo not given)	14.0%	8.4%
COCCn1c(SCc2nc(C(C)(C)C)no2)nc2sc(C)c(C)c2c1=O	5.1%	5.4%
CCS(=O)(=O)c1cccc(C(=O)N2CCN(c3nc4c(C)ccc(Cl)c4s3)CC2)c1	-9.2%	0.0%
CCOc1ccc(S(=O)(=O)Nc2ccc3c(c2)CCCN3C(=O)c2cccs2)cc1	125.5%[activator]	-22.8%
Cc1nc(-c2csc(S(=O)(=O)NCc3ccc(Br)cc3)c2)no1	88.4%[activator]	1.6%
COc1cc(CNC(=O)N2CCN(S(=O)(=O)c3ccc(Cl)s3)CC2)ccc1OC(F)F	0.7%	-6.3%
CCc1nnc(NC(=O)CSc2nccn2Cc2ccccc2)s1	4.3%	51.5%[activator]
